Screening results as filed in PubChem.
A647 autofl = compound autofluorescence in A647 spectral region; Compound fluorescence, A647 channel (570/671 nm), Tris buffer; max dye-equivalent concentration, M; 59,000 tested, under 10 active; AID 592; active means above 1 µM dye equivalent; inconclusive means 0.1 to 1 µM; inactive means 0.1 µM or less;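 note: values scaled relative to a standard on each plate; highest value over a series up to 38 µM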
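Spectral profiling of library compounds in pH 8.0 Tris: 15 min room-temperature incubation, single ex/em pair (570/671 nm), response normalized to Alexa 647 equivalents.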
A488 fluor = compound autofluorescence in A488 spectral region | hit rate 0.1% among 59,000 | max dye equivalency, M | compound autofluorescence, A488 spectral region, dye equivalency; active compounds read high | AID 591; active = above 10 nM dye equivalent; inconclusive = 1 to 10 nM; inactive = 1 nM or less; about half of its hits are not listed in these tables;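 note: highest value over a series up to 38 µM; compound alone in buffer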
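Read-out: relative fluorescence at 480/540 nm, expressed as Alexa 488 dye-equivalent concentration from a six-point A488 standard included per plate. Conditions: 100 mM Tris, pH 8.0; 15 min incubation, room temperature.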
TSHR agonist = TSH receptor (human) agonism | HEK293-CNG-TSHR cells (CNG channel as cAMP sensor), membrane potential dye, cAMP | Potency, µM (highest dose often 57.1 µM), without a hit: top-dose activation, usual class: activators | P16473 | hit rate 0.48% among 73,000; active = well fitted activation curve of enough size with the parental cells flat; inconclusive = any curve in the parental cells; inactive = parental cells flat and receptor cells flat or falling; note: potency is the fitted concentration of half-maximal effect; % of control where 0% means no effect; weak receptor curves with flat parental cells got no call and are not listed
Target sequence (P16473 whole entry, looked up): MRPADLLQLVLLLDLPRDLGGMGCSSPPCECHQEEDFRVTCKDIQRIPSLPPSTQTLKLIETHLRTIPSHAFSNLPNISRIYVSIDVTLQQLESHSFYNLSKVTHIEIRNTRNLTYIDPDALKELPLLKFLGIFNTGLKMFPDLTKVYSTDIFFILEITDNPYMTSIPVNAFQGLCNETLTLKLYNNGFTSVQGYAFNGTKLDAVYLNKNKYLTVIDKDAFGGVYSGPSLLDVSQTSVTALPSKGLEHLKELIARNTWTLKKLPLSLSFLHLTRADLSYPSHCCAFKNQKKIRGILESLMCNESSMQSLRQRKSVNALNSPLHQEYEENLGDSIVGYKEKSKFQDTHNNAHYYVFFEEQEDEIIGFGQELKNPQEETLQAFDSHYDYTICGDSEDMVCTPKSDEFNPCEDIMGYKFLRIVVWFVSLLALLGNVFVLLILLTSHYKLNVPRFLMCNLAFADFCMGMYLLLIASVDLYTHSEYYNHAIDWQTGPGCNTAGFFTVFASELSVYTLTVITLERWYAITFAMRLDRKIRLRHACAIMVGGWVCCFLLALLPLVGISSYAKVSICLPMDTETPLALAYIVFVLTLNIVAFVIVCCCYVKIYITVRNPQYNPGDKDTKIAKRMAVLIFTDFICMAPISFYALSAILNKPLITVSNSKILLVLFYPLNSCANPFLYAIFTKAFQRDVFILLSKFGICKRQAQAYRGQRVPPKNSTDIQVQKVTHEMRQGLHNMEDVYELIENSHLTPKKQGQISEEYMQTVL
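HEK 293 cells stably expressing TSHR and a cAMP-gated CNG channel; parental CNG-only cells as counterscreen. Cells preloaded 60 min with membrane potential dye plus 100 uM RO 20-1724, then compound 30 min; fluorescence read at 590 nm.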
Resorufin fluor = compound fluoresces in the resorufin spectral region. AID 588. Compound fluorescence, resorufin region 547/598 nm, buffer; active compounds read high. max dye-equivalent concentration, M. hit rate 0.04% among 59,000; active = above 10 nM dye equivalent; inconclusive = 1 to 10 nM; inactive = 1 nM or less; a few of its hits are not listed in these tables; note: highest value over a series up to 38 µM
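Compounds in 100 mM Tris buffer, pH 8.0, incubated 15 min at room temperature, then read with 547 nm excitation and 598 nm emission filters. Fluorescence was converted to dye-equivalent concentration using an on-plate six-point resorufin standard curve.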
AID923 = qHTS Assay for Allosteric/Competitive Inhibitors of Caspase-1: Spectroscopic Profiling in AFC Spectral Region; compound fluorescence, AFC spectral region (405/520 nm); almost no hit is shown here; hit rate 1.1% among 75,000; AID 923, 2007; Potency, µM (highest dose often 57.5 µM), for the others: at the highest dose fluorescence increase, usual class: activators; active = well fitted activation curve with a large enough effect; inconclusive = small, poorly fitted or top-dose-only effect;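 note: potency is the fitted concentration of half-maximal effect; 0% is about no effect; scaled to a free AFC standard on each plate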
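Baseline compound fluorescence (AFC region, 405 nm ex/520 nm em) taken from the intercept of kinetic reads with 50 nM caspase-1 and 5 uM Ac-WEHD-AFC; normalized to an on-plate AFC standard curve; compounds titrated up to 57 uM.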
Active calls of the source: *; i = inactive; ? = inconclusive; . = not tested or not shown; & = joins results of further samples; [ ] = remark or other dose. The list is partial (hit frequency here may not be typical).

Values run as follows: TSHR agonist, A488 fluor, Resorufin fluor, AID923, A647 autofl
1. O=C(c1noc2c1CCCC2)N1CCN(c2ccc(F)cc2)CC1
 : 5%, i, i, 1.2%, 1.7e-08
2. C=CCNC(=O)c1ccc(OC)cc1OC
 : 13%, i, i, -1.5%, 1e-09
3. O=P1(c2ccccc2)C=Cn2c1cc1c2CCCC1 (centres undefined)
 : ., i, i, 6.3%, 1.1e-08
4. Cc1cc(NC(=O)Cn2nnc3sc4c(c3c2=O)CCC(C(C)(C)C)C4)no1 (centres undefined)
 : 13%, i, i, 2.2%, 5.9e-09
5. Cc1ccc(-n2c(SCC(N)=O)nnc2-c2ccccn2)cc1
 : 2%, i, i, 0.5%, 8e-09
6. CN(C)c1nc(C(=O)Nc2ccccc2)nc(N(C)C)n1
 : ., i, i, -2.6%, 5.2e-09
7. O=C1CCc2cc(S(=O)(=O)N3CCC(C(=O)NC4CCCc5ccccc54)CC3)ccc2N1 (centres undefined)
 : ?, ., ., -1.1%, .
8. CC1(C)CCC2=C(O1)c1ccccc1C(=O)C2=O
 : -9%, i, i, 1.9%, 3.6e-08
9. CSc1nnc(-c2cnccn2)n1Cc1ccccc1
 : 5%, i, i, 0.2%, 7.8e-09
10. COc1ccc2c(c1)C1(Nc3ccccc3-c3nc4ccccc4n31)C(=O)N2C (centres undefined)
 : ?, i, i, 2.6%, 1e-09
11. COc1ccc(NC(=O)CSc2nnc(-c3ccco3)n2C)cc1
 : -1%, i, i, -2.6%, 2.2e-09
12. CN(N=O)c1ccc(/C=C\c2ccnc3ccccc23)cc1
 : -2%[11.4 µM], i, i, -0.6%[11.5 µM], 1e-09
13. CCCC(=O)Nn1cnc2c(c1=O)C1(CCCC1)Cc1ccccc1-2
 : ., i, i, ., 3e-08
14. Cc1cc(F)ccc1S(=O)(=O)Nc1ccccc1C(=O)Nc1ccc2[nH]c(=O)[nH]c2c1
 : 27%, i, i, -0.8%, 2.7e-09
15. O=c1cc2c(n[nH]1)CCCC2
 : -3%, i, i, -0.8%, 1e-09
16. C=C(C)c1cccc(C(C)(C)NC(=O)N2CCN(c3ccccn3)CC2)c1
 : ?, ., ., -1.6%, .
17. CCNC(=O)CSc1nc2ccccc2c(=O)n1CCCOC(C)C
 : 3%, i, i, -2.0%, 4e-09
18. COc1ccc(C2=C(N)c3ccccc3C2=O)cc1
 : ?, ., ., -0.6%, .
19. COc1ccc2occ(C(=O)c3ccc(N=C(C)N(C)C)cc3)c2c1
 : ?, ., ., 1.8%, .
20. CCN(CC)C(=O)c1cc(-c2ccc(Br)cc2)on1
 : 1%, i, i, -0.8%, 1e-09
21. CCOC(=O)N1CCC(N2Cc3cccc(C(=O)N4CC(C)CC(C)C4)c3C2=O)CC1 (centres undefined)
 : -1%, i, i, -1.1%, 4.8e-08
22. CC(=O)Nc1cc(C(F)(F)F)ccc1OCC1CCCO1 (centres undefined)
 : ., i, i, 0.5%, 1.3e-08
23. O=C(Nc1ccccc1C(=O)N1CCCC1)C1CCN(c2ncccn2)CC1
 : 0%, i, i, -0.6%, 1e-09
24. COC(=O)c1ccc(CNC(=O)COc2ccccc2Br)o1
 : 10%, i, i, -1.5%, 1e-09
25. Clc1ccc(Cl)c(OCCN2CCOCC2)c1
 : ?, i, i, 2.2%, 1.3e-08
26. CCCCNC(=O)Nc1ccon1
 : -8%, i, i, -1.3%, 1e-09
27. COc1ccc(S(=O)(=O)N(C(C)=O)c2ccc3oc(=O)sc3c2)cc1
 : -12%, i, i, 3.1%, 4.6e-08
28. CCOC(=O)N1CCC(NC(=O)c2cc3c(=O)n(C)c4ccccc4c3n2C)CC1
 : -1%, ., ., -2.4%, .
29. Cn1cccc1C(=O)N1CCC[C@@]2(CCN(c3ccccc3)C2)C1
 : 27%, i, i, 0.5%, 1.2e-09
30. CN(Cc1nc(-c2ccccn2)no1)S(=O)(=O)c1ccccc1
 : 0%, i, i, -1.0%, 3.5e-09

Entries of single compounds as entered above.
Profile of O=C(c1noc2c1CCCC2)N1CCN(c2ccc(F)cc2)CC1 → TSHR agonist: 5%; A488 fluor: i; Resorufin fluor: i; AID923: 1.2%; A647 autofl: 1.7e-08
Profile of COc1ccc2c(c1)C1(Nc3ccccc3-c3nc4ccccc4n31)C(=O)N2C (centres undefined) → TSHR agonist: ?; A488 fluor: i; Resorufin fluor: i; AID923: 2.6%; A647 autofl: 1e-09
Profile of CCNC(=O)CSc1nc2ccccc2c(=O)n1CCCOC(C)C → TSHR agonist: 3%; A488 fluor: i; Resorufin fluor: i; AID923: -2.0%; A647 autofl: 4e-09

More structures:
Values run as follows: TSHR agonist, A488 fluor, Resorufin fluor, AID923, A647 autofl
31. O=C(CCC(=O)N1CCCC1)Nc1nnc(C2CCCCC2)s1
 : 20%, i, i, 1.0%, 1.2e-08
32. Cc1ccnc(N2CCCC(C(=O)Nc3cc(F)ccc3C)C2)n1 (centres undefined)
 : ?, i, i, 1.4%, 1.7e-09
33. CCN(CC(=O)NC(C)C)C(=O)c1ccc(S(=O)(=O)N(C)c2ccccc2OC)cc1
 : -1%, i, i, 0.0%, 3.6e-08
34. O=C(CSc1nnc(Cn2c(=O)sc3ccccc32)n1CCc1ccccc1)N1CCCC1
 : 12%, ., ., -1.2%, .
35. Cc1cnc(SCCc2ccncc2)nc1C
 : 26%, i, i, 0.0%, 1e-09
36. CCOc1cccc(C(=O)Nc2cccc(-c3nnc(-c4ccc(C)cc4)o3)c2)c1
 : 26%, i, i, -3.2%, 7.6e-09
37. CCn1c(SCC(=O)c2cc(OC)ccc2OC)nnc1C1CC1
 : 10%, i, i, 0.7%, 4.3e-08
38. Cc1cc(C)n(CCc2nc(-c3cc4ccccc4o3)cs2)n1
 : ?, i, i, -0.6%, 4.3e-08
39. O=C(CN1C(=O)NC2(CCCCCC2)C1=O)c1ccc2c(c1)OCCO2
 : ?, i, i, -1.5%, 3.3e-08
40. Cc1csc(NC(=O)c2c(O)c3cccc4c3n(c2=O)CCC4)n1
 : 2%, i, i, -0.4%, 1e-09
41. O=C(Nc1c(F)c(F)c(F)c(F)c1F)C1CCCCC1
 : ?, ., ., 3.5%, .
42. NS(=O)(=O)c1ccc(CNC(=O)c2ccc(Br)o2)cc1
 : ?, i, i, 0.9%, 2.7e-09
43. Cc1cnc(Nc2nc3ccccc3o2)nc1C(=O)Nc1cccc(C(F)(F)F)c1
 : -12%, i, i, -0.2%, 1e-09
44. COc1ccc(OC)c(C2C(C(=O)c3ccc(C)o3)=C(O)C(=O)N2CCCN2CCOCC2)c1 (centres undefined)
 : -6%, i, i, -0.4%, 1e-09
45. COc1cccc(N2CCN(C3CC(=O)N(c4ccc(Cl)cc4)C3=O)CC2)c1 (centres undefined)
 : -19%[11.4 µM], ., ., -1.6%, .
46. C=CCn1c(=O)c2ccccc2n2c(SCC(=O)N3CCCc4ccccc43)nnc12
 : ?, i, i, -0.6%, 1.5e-09
47. CC(=O)Nc1ccc2c(c1)C(=O)N(C1CCCCC1)C2=O
 : -10%, i, i, 1.2%, 1.9e-08
48. Cn1c(SCC(=O)NCc2ccc(F)cc2)nc2ccccc21
 : -2%, i, i, -0.6%, 8.2e-09
49. c1ccn2c(SCc3cn4ccsc4n3)nnc2c1
 : 0%, i, i, -0.7%, 4e-08
50. CC(C)CC(=O)Nc1ccccc1N1CCN(C(=O)c2ccccc2)CC1
 : 17%, i, i, 0.6%, 1e-09
51. O=S(=O)(NCc1ccccn1)c1ccc(F)cc1
 : 29%, ., ., -1.2%, .
52. CCCCOc1ccc(/C(O)=C2/C(=O)C(=O)N(CCN(C)C)C2c2ccc(O)c(OC)c2)cc1 (centres undefined)
 : -7%, i, i, -0.9%, 1e-09
53. CCC(=O)N1CCc2cc(S(=O)(=O)NCCC(=O)Nc3cc(C)cc(C)c3)ccc21
 : 20%, i, i, -1.2%, 1e-09
54. Oc1ccc2c(c1)C1CCCC1(N1CCOCC1)O2 (centres undefined)
 : ., i, i, ., 8.9e-09
55. O=C(NCCc1ccccc1)C1CCN(S(=O)(=O)c2ccc(-c3nn[nH]n3)cc2)CC1
 : 1%, i, i, -1.4%, 1e-09
56. Cn1c(CNc2ccccc2)cc(=O)n(C)c1=O
 : 3%, ., ., 3.9%, .
57. N#Cc1c(SCC(=O)O)nc(N2CCCCC2)c2c1CCCC2
 : ., i, i, ., 1e-09
58. O=C(NC1(C(F)(F)F)NC(=O)N(C2CCCC2)C1=O)C1CC1 (centres undefined)
 : -1%, i, i, 0.8%, 3.6e-08
59. CCC(NC(=O)Cn1cnc2c(=O)n(C)c(=O)n(C)c21)c1ccccc1 (centres undefined)
 : 15%, i, i, -1.0%, 5.7e-08
60. COc1nc(N2CCCC2)nc(-n2cc(-c3ccccc3)nn2)n1
 : ?, i, i, 1.8%, 1e-09

3 compounds already listed, ordered by count of non-hydrogen atoms, smallest number first:
Values run as follows: TSHR agonist, A488 fluor, Resorufin fluor, AID923, A647 autofl
51. O=S(=O)(NCc1ccccn1)c1ccc(F)cc1
 : 29%, ., ., -1.2%, .
47. CC(=O)Nc1ccc2c(c1)C(=O)N(C1CCCCC1)C2=O
 : -10%, i, i, 1.2%, 1.9e-08
58. O=C(NC1(C(F)(F)F)NC(=O)N(C2CCCC2)C1=O)C1CC1 (centres undefined)
 : -1%, i, i, 0.8%, 3.6e-08

(further entries)
Values run as follows: TSHR agonist, A488 fluor, Resorufin fluor, AID923, A647 autofl
61. CCn1c(=O)c(C(=O)NCCc2ccccc2)c(O)c2ccccc21
 : 19%, i, i, -0.1%, 5e-08
62. CCOC(=O)N1CCc2c(sc3c2C(=O)NC(c2ccc(-c4ccc(Cl)cc4)o2)N3)C1 (centres undefined)
 : -12%[11.4 µM], i, i, 12%, 1e-09
63. O=c1c2ccccc2nc(SCc2cn3ccsc3n2)n1-c1ccccc1
 : ?, i, i, -1.6%, 7.2e-09
64. CCCCOC(=O)CSc1nc(N)c(C#N)c(-c2ccc(OCC)cc2)c1C#N
 : ., i, i, -3.6%, 1.4e-09
65. c1ccc(OCCOc2ncnc3sccc23)cc1
 : -3%, i, i, -0.7%, 3.2e-09
66. CCCn1c(=O)c(C(=O)NCc2ccncc2)c(O)c2ccccc21
 : ?, i, i, -0.1%, 1e-09
67. CC(C)C(NS(=O)(=O)c1cccc2nsnc12)C(=O)N1CCc2ccccc2C1 (centres undefined)
 : -3%[11.4 µM], i, i, -1.2%, 2.8e-08
68. COc1ccccc1Cn1nnc2c(=O)[nH]c(C3CCN(C(=O)c4ccc(C)cc4)CC3)nc21
 : -6%[11.4 µM], i, i, -0.3%, 3.9e-08
69. COc1ccc2cc3cc(C(=O)NCCN4CCc5ccccc5C4)oc3nc2c1
 : 25%, i, i, 6.4%, 3.1e-09
70. Cc1[nH]nc2nc(SCC(=O)NCC3CCCO3)n(-c3ccc(Br)cc3)c(=N)c12 (centres undefined)
 : 0%, i, i, 0.0%, 1.1e-08
71. COc1ccccc1OCc1ccc(C(=O)NC(C)(C)C)o1
 : 9%, i, i, 1.3%, 1.8e-08
72. CC(C)CCOc1ccc(C(=O)NCCC(=O)N2CCOCC2)cc1
 : ., i, i, -0.4%, 1e-09
73. CCC(=O)N1CCN(c2ccccc2NC(=O)COc2cc(C)ccc2C(C)C)CC1
 : ?, i, i, -1.7%, 1.7e-08
74. Clc1cc(Cl)c(OCc2nc(-c3ccccn3)no2)cc1Cl
 : ?, i, i, -1.8%, 3.3e-08
75. C/C(CCN1CCCc2nc(C)c(C)cc21)=N\O[C@@H](C)c1cn([C@H](CO)Cc2ccccc2)nn1
 : 8%&9%[11.4 µM], ., ., 1.2%&13%[11.5 µM], .
76. COC(=O)c1cc(=O)n(Cc2cccs2)c(=NCc2cccs2)s1
 : 23%, i, i, 2.1%, 4.8e-09
77. S=c1[nH]nc(-c2ccccc2)n1C1C=CCCC1 (centres undefined)
 : 1%, ., ., -0.5%, .
78. O=C(O)CCC(=O)Nc1nc(-c2ccccc2)cs1
 : -3%, i, i, -0.5%, 2.9e-08
79. COCCCN(C(=O)c1ccco1)c1nc(-c2cc(OC)ccc2OC)cs1
 : ?, i, i, -1.0%, 1e-09
